Source: PubChem (several laboratories)
Hsc70 ATP site – small molecules displacing fluorescent ligand from Hsc70 – biochemical, fluorescence polarization, primary screen (AID 568); Hsc70 fluorescence polarization, probe displacement; higher % means a stronger effect; strong numbers were not always called active; one-dose displacement, % at 20 µM; IC50 in µM for titrated hits; 83,000 tested, under 10 active;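 active = displacement above 50% without optical interference and an IC50 on retest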;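 note: ATPase domain with a fluorescein-tagged ATP probe; 0% = vehicle and 100% = excess ADP; read after one hour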
WNV protease inh – WNV NS2B-NS3 proteinase inhibition; P06935; WNV NS2B-NS3 protease, fluorogenic substrate Ex360/Em465; active compounds read low; z-score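 (tested at a level between 10 and 100 µM)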; 0.18% of 65,000 active; AID 577;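 active = z-score at -3 or under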;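 note: score is relative to mean and spread of the compound wells of a plate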
Target sequence (P06935 1371-1501 limits assumed): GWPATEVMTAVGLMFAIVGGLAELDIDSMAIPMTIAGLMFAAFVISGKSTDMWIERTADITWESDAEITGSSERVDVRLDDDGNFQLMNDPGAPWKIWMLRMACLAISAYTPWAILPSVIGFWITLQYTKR
Target sequence (P06935 1502-1679 limits assumed): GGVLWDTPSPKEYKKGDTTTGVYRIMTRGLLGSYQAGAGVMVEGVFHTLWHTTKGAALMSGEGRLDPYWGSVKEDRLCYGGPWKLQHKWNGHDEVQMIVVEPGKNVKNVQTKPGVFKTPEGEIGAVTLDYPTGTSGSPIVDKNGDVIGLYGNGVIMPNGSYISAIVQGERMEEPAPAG
MT1-MMP promoter – MT1-MMP gene expression reporter suppression – cell-based, luciferase reporter, luminescence (AID 618) | 0.62% of 87,000 active | calls from a first round at 10 µM; hits with a dose series show EC50 in µM | MT1-MMP promoter luciferase reporter cells, luminescence;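 active = over half of the reporter light lost at 10 µM or EC50 under 50 µM; inactive = the rest and hits that failed the dose series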;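 note: actives suppress MT1-MMP promoter-driven transcription so potencies describe inhibitors; HT1080 fibrosarcoma cells; overnight exposure; toxic or luciferase-blocking compounds were not removed from the actives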
An asterisk follows results filed as active; i = inactive; . = not tested or not shown.

SMILES	Hsc70 ATP site	WNV protease inh	MT1-MMP promoter
Oc1ccc(Br)cc1-c1cc(-c2ccccc2F)[nH]n1	-0.1%	-0.22	i
C=CCNc1oc(-c2cccc3ccccc23)nc1C#N	-0.9%	0.03	i
CN=C1SC(CC(=O)Nc2ccc(C(C)=O)cc2)C(=O)N1C (stereo not given)	-0.5%	.	i
Cc1oc(CC(C)C)c(CN2CCCC2)c1C(=O)O	-5.1%	0.09	i
Cc1cc(C)n(C(=O)CCC(=O)NCc2ccccc2)n1	3.2%	0.12	i
Nn1c(SCc2csc(-c3ccccc3)n2)nnc1-c1cccs1	-1.2%	-0.3	i
CCCS(=O)(=O)N1CCCC(C(=O)NC2CCCCC2)C1 (stereo not given)	-0.2%	0.51	i
CNC(=O)c1[nH]cnc1C(=O)Nc1ccccc1C	3.3%	.	i
CCOC(=O)c1[nH]c2ccccc2c1NC(=O)CN(C)C	-6.2%	-0.0062	i
CC(=O)Nc1ccc(OCC(O)Cn2nc(C)c(C(C)=O)c2C)cc1 (stereo not given)	12%	0.41	i
C/C(=N\O)C(=O)NCC1CCNCC1	-2.3%	-1.3	i
Cc1ccc(CN(C(=O)Cn2nnc3ccccc32)C(C(=O)NCc2ccco2)c2ccc(C)o2)cc1 (stereo not given)	-40%	.	i
CCOC(=O)Cn1c(N2CCCCCC2)nc2c1c(=O)[nH]c(=O)n2C	3.1%	0.54	i
O=C(CN1C(=O)CCS(=O)(=O)c2ccccc21)NCc1ccc2c(c1)OCO2	5.0%	-0.64	i
CCCN1Cc2cccc(C(=O)NC3CCCC3)c2C1=O	1.7%	0.95	i
OC(CNCCCN1CCCCC1)COc1ccccc1 (stereo not given)	-5.0%	-6*	i
CC1=NN(c2cccc(C(=O)O)c2)C(=O)/C1=C\C=C\c1ccco1	9.1%	.	i
COc1ccc(C2C3=C(CC(C)(C)CC3=O)Nc3n[nH]c(C)c32)cc1 (stereo not given)	-1.3%	-0.16	i
O=C1CN(C(=O)c2ccco2)C(c2ccc(F)cc2)c2cc(Cl)ccc2N1 (stereo not given)	-14%	-1	i
O=C(Nc1nnc(SCc2ccccc2F)s1)c1ccco1	1.9%	0.51	i
Cc1cccc(N2CCN(C(=O)c3ccc(N4CCCC4=O)cc3)CC2)c1C	6.1%	0.13	i
Oc1ccc2cccnc2c1	11%	-0.25	i
CCc1nc(NC2CCCCC2)c(C#N)c2c1COC(C)(C)C2	-0.6%	-0.46	i
COC(=O)[C@H](CCSC)NC(=O)Nc1ccc(C(C)=O)cc1	3.9%	1	i
Cc1ccc(C)c(N2CCN(C(=O)C3CCN(S(=O)(=O)c4cccc5nsnc45)CC3)CC2)c1	-6.6%	-0.26	i

Further entries follow.
SMILES	Hsc70 ATP site	WNV protease inh	MT1-MMP promoter
O=C(CSc1nnc2n(C3CCCCC3)c(=O)c3ccccc3n12)OC1CCCCC1	-0.4%	2	i
Cc1cc(C(F)F)n2nc(C(=O)Nc3c(F)cc(F)cc3Br)nc2n1	1.0%	0.07	i
COc1ccc2[nH]c(=O)c(CN(C(=O)c3cccnc3)c3ccccc3)cc2c1	0.5%	.	i
O=c1c2ccccc2ncn1-c1cccc(Cl)c1	5.1%	.	i
Cc1nc(CNS(=O)(=O)c2cc(C)c(C)cc2C)cs1	-1.8%	-0.2	i
COC(=O)c1cccc(COC(=O)c2ccc(N(C)C)cc2)c1	5.5%	.	i
COc1ccccc1-c1nnc2n1N=C(c1ccc(O)c(O)c1)CS2	0.4%	0.68	i
Cc1ccn2cc(C(=O)Nc3nnc(C)s3)nc2c1	0.8%	0.56	i
Cc1ccc(C2CC(C(F)(F)F)n3ncc(C(N)=O)c3N2)cc1 (stereo not given)	-0.6%	-0.1	i
Cc1cc(C(=O)OCC(=O)c2ccc(Br)s2)c(C)o1	-5.3%	-0.37	i
COc1ccc(S(=O)(=O)Nc2cc(C(=O)NC(C)C)ccc2N2CCOCC2)cc1	0.6%	.	i
CCOC(=O)N1CCN(c2c(NCC3CCCO3)c(=O)c2=O)CC1 (stereo not given)	5.8%	-0.14	i
COc1ccc(-c2nnc(N(C)C(=O)c3ccno3)s2)cc1	-1.3%	.	i
COc1ccc(CN(Cc2cc3cccc(C)c3[nH]c2=O)C(=O)N(C)C)cc1	-1.7%	-0.1	i
CCOC(=O)c1cc(C(=O)OCC)cc(-n2c(C)cc(C(=O)CN3CCOCC3)c2C)c1	-1.3%	2.6	i
COc1ccc(OC)c(N(CC(=O)Nc2cccnc2)S(=O)(=O)c2ccc(OC)c(OC)c2)c1	-2.5%	-0.01	i
O=C(NCCCN1CCOCC1)c1cc2c(=O)[nH]c3ccccc3c2s1	1.9%	-0.34	i
Cc1ccc(C2CC(=O)c3cnc(N4CCN(c5ccccc5)CC4)nc3C2)cc1 (stereo not given)	-6.8%	1.4	i
Nc1nnc(SCC(=O)N2CCc3ccccc32)n1-c1ccccc1	1.9%	-0.59	i
CCCCn1c(-c2nonc2N)nc2ccccc21	-2.4%	.	i
Cc1ccc(/C=C/S(=O)(=O)N2CCC(C(=O)O)CC2)cc1	4.4%	-0.39	i
Cc1ccc(C(=O)N(c2c(C)n(C)n(-c3ccccc3)c2=O)C(C)C)cc1	-2.3%	.	i
O=C(c1noc2c1CCCC2)N1CCN(Cc2ccccc2)CC1	1.8%	0.51	i
O=C(c1ccc(S(=O)(=O)N2CCCCC2)cc1)N1CCCc2ccccc21	4.4%	0.35	i
Cc1ccc(NCCc2ccc(C)nc2)cc1	0.8%	.	i

Other entries follow:
SMILES	Hsc70 ATP site	WNV protease inh	MT1-MMP promoter
O=C(CSc1nnnn1C1CCCCC1)N1c2ccccc2Sc2ccccc21	-3.4%	.	i
Cc1cc2c(c(=O)n1CCN(C)C)C(c1ccc(Cl)cc1)C(C#N)=C(N)O2 (stereo not given)	1.6%	2.3	i
CCOC(=O)NCc1ccc2c(c1)OCO2	-7.8%	-1.7	i
Cn1c(=O)c2c(n(Cc3ccccc3)c1=O)NC(=O)C2CC(=O)N1CCc2ccccc2C1 (stereo not given)	3.7%	-0.74	i
COc1ccc(-c2[nH]nc3oc(=O)cc(C)c23)cc1	1.7%	-0.36	i
O=C(Oc1cccc(NC(=O)c2ccco2)c1)c1cccc(S(=O)(=O)N2CCCC2)c1	-3.5%	0.97	i
COc1ccc(C(=O)N2c3ccc(F)cc3CCC2C)cc1OC (stereo not given)	-5.3%	0.23	i
CCCCn1c(SCc2ccccn2)nc2c1c(=O)n(C)c(=O)n2C	1.7%	.	i
COc1ccc(CCn2c(-c3ccco3)nc3nc4ccccc4nc32)cc1OC	1.9%	-0.53	i
CCOc1ccccc1NC(=O)CSc1c(C)n[nH]c1C	0.1%	-0.84	i
COc1ccccc1NCCC(=O)OCC(=O)NCc1ccco1	-0.1%	0.24	i
Cc1ccc(S(=O)(=O)N2CCN(C3CC(=O)N(CCc4ccccc4)C3=O)CC2)cc1C (stereo not given)	1.5%	.	i
CCCc1nn(CCc2ccccn2)c(N)c1CC	2.2%	-0.02	i
CC1(C)CC(=O)C2=C(C1)N(c1ccccc1)C(N)=C(C#N)C2c1ccccc1 (stereo not given)	2.0%	.	i
CCOC(=O)c1cccc(NC(=O)CSc2nnc(C3CCCCC3)n2CC)c1	-1.2%	0.48	i
O=C(Nc1ccccc1OC(F)F)c1ccccc1	0.3%	0.11	i
O=C(O)CSCc1ccc(Cl)cc1	2.1%	0.07	i
COCCN(C(=O)CC(C)(C)C)c1nnc(-c2cccnc2)s1	-1.3%	.	i
O=C(Nc1ccccn1)c1cc2ccccc2o1	3.3%	.	i
COc1ccc(NC(=O)NCCN2CCN(c3cccc(Cl)c3)CC2)cc1	1.0%	-0.37	i
C=CCN=C1SCC(=O)N1S(=O)(=O)c1ccc(C)cc1	-0.1%	0.15	i
C=CCOn1c(=O)c(-c2cccs2)[n+]([O-])c2ccccc21	34%	.	i
COc1ccc(C2C(C(=O)c3ccc(C)o3)=C(O)C(=O)N2c2cc(C)on2)cc1OC (stereo not given)	-4.6%	-0.24	i
CCCCN1C2CCCC1CC(NC(=O)C1CCCCC1)C2 (stereo not given)	3.4%	.	i
COc1ccc(CN(Cc2cc3cc(C)ccc3[nH]c2=O)C(=O)N(C)C)cc1	6.2%	0.71	i

Single records, from the list above.
Listed for Cn1c(=O)c2c(n(Cc3ccccc3)c1=O)NC(=O)C2CC(=O)N1CCc2ccccc2C1 (stereo not given) : Hsc70 ATP site = 3.7%; WNV protease inh = -0.74; MT1-MMP promoter = i
Listed for O=C(Oc1cccc(NC(=O)c2ccco2)c1)c1cccc(S(=O)(=O)N2CCCC2)c1 : Hsc70 ATP site = -3.5%; WNV protease inh = 0.97; MT1-MMP promoter = i

(more compounds)
SMILES	Hsc70 ATP site	WNV protease inh	MT1-MMP promoter
O=C(CSc1nnc(Cc2cc(=O)[nH]c(=O)[nH]2)n1-c1ccc(Cl)cc1)NC1CCCC1	-1.0%	2	i
Cc1ccc(-c2nn(-c3ccccc3)cc2C(=O)N2CCOCC2)cc1	0.2%	-0.35	i
CN1CCN(c2nc(-c3ccncc3)nc3ccccc23)CC1	3.4%	0.22	i
CCCc1nnc(SCC(=O)N2CCCC2)n1CC1CCCO1 (stereo not given)	-5.8%	-0.02	i
CC(C)OC(=O)c1nnn(-c2nonc2N)c1CSc1ccccn1	3.1%	-1.3	i
CCN(Cc1nc2ccccc2c(=O)[nH]1)Cc1nc2cc(OC)c(OC)cc2c(=O)[nH]1	0.1%	3.4	i
Cc1nnc(NCc2n[nH]c(=O)c3ccccc23)c2ccccc12	-4.4%	1.2	i
CCN(C(=O)c1cc2cccc(OC)c2oc1=O)c1ccccc1	9.0%	-0.02	i
COc1ccc(-c2noc(-c3cccc(Cl)c3)n2)cc1OC	-6.0%	-0.41	i
CCCOc1cccc(C(=O)Nc2cc(NC(=O)c3ccco3)ccc2OC)c1	0.6%	-0.34	i
CCOc1cc(-c2nc(-c3cc(OC)c(OC)c(OC)c3)no2)cc(OCC)c1OCC	3.7%	-0.64	i
O=C(CCCCCCCC(=O)NCC1CCCO1)NCC1CCCO1 (stereo not given)	1.7%	.	i
CCOC(=O)Cn1nnnc1CN(Cc1ccc(OC)cc1)Cc1cc2cc(C)ccc2[nH]c1=O	-2.6%	0.99	i
N=C1C(c2nc(-c3ccc(F)cc3)cs2)=C(O)CN1CCCN1CCOCC1	-7.6%	0.48	i
COc1cc(C(=O)Nc2cc(-c3ccccc3)[nH]n2)cc(OC)c1OC	5.5%	0.35	i
OC(C#CCN1CCOCC1)c1cccs1 (stereo not given)	-0.3%	1.3	i
O=C(Cn1ccc2ccccc2c1=O)NCCC(=O)NC1CCN(Cc2ccccc2)CC1	0.9%	-0.03	i
N#Cc1ccccc1Cn1c(=O)n(CCC(=O)NCc2ccco2)c(=O)c2ccccc21	0.1%	-1.2	i
O=C(CN1C(=O)c2ccccc2C1=O)Nc1ccc2c(c1)OCO2	0.2%	-0.57	i
Cc1c(NC(=O)c2cc(-c3ccco3)on2)c(=O)n(-c2ccccc2)n1C	-0.5%	0.56	i
CCC(CC)COC(=O)C(C#N)c1nc2ccccc2nc1N1CCOCC1 (stereo not given)	-2.5%	-0.88	i
CC1CCc2nc(NC(=O)CN3CCOCC3)sc2C1 (stereo not given)	1.0%	-0.87	i
CCC1CCCN1Cn1cnc2c([nH]c3ccc(OC)cc32)c1=O (stereo not given)	7.2%	0.91	i
O=C(O)C1CCCN1C(=O)Nc1ccccc1 (stereo not given)	-4.1%	0.14	i
CCN(CC)C(=O)C(=O)c1cccn1-c1cccc(Cl)c1C#N	-4.2%	.	i

Continued.
SMILES	Hsc70 ATP site	WNV protease inh	MT1-MMP promoter
Cn1c(-c2ccc(-c3ccccc3)cc2)c[nH]c1=S	1.7%	.	i
Cc1ccc(OCC(=O)N2CCCc3ccccc32)cc1	-6.3%	.	i
CCCCn1c(Oc2ccc(C(=O)OC)cc2)nc2c1c(=O)n(C)c(=O)n2C	-5.6%	-0.57	i
COc1ccc(S(=O)(=O)n2nc(OC(=O)C3CCCCC3)cc2N)cc1	-1.9%	0.93	i
CC(C)CC(c1nnnn1CC1CCCO1)N1CCN(C2CCCC2)CC1 (stereo not given)	7.9%	2.3	i
O=C(NCC1COc2ccccc2O1)C1CCN(S(=O)(=O)c2cccc3nsnc23)CC1 (stereo not given)	-1.2%	0.95	i
O=C(Cn1c(S(=O)(=O)Cc2ccccc2)nc2ccccc21)N1CCCCC1	5.4%	-0.24	i
CCCSc1nnc2n(-c3ccccc3OC)c(=O)c3c4c(sc3n12)CCC4	-0.6%	-0.15	i
CC(C)C(NCc1c(Cl)cccc1Cl)C(=O)O (stereo not given)	5.7%	-1.2	i
COc1ccc(C(=O)N2CCOCC2)cc1Br	3.0%	0.37	i

Molecules from the list above containing fluorine, in the order listed:
SMILES	Hsc70 ATP site	WNV protease inh	MT1-MMP promoter
Oc1ccc(Br)cc1-c1cc(-c2ccccc2F)[nH]n1	-0.1%	-0.22	i
O=C1CN(C(=O)c2ccco2)C(c2ccc(F)cc2)c2cc(Cl)ccc2N1 (stereo not given)	-14%	-1	i
O=C(Nc1nnc(SCc2ccccc2F)s1)c1ccco1	1.9%	0.51	i
Cc1cc(C(F)F)n2nc(C(=O)Nc3c(F)cc(F)cc3Br)nc2n1	1.0%	0.07	i
Cc1ccc(C2CC(C(F)(F)F)n3ncc(C(N)=O)c3N2)cc1 (stereo not given)	-0.6%	-0.1	i
COc1ccc(C(=O)N2c3ccc(F)cc3CCC2C)cc1OC (stereo not given)	-5.3%	0.23	i
O=C(Nc1ccccc1OC(F)F)c1ccccc1	0.3%	0.11	i
N=C1C(c2nc(-c3ccc(F)cc3)cs2)=C(O)CN1CCCN1CCOCC1	-7.6%	0.48	i
